D2 PAM = human D2 receptor positive allosteric modulation; AID 624464; 0.23% of 360,000 active; potentiation, % (no concentration beside the values); DiscoveRx D2 beta-arrestin cells, luminescence, 90 min; 100% = 57 uM dopamine signal; active = potentiation of 50% or more; inconclusive = 30% to 50%; inactive = 30% or less;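 further: compound concentration not given in the record; tested on top of an EC20 dose of dopamine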
Target sequence (P14416 whole entry, looked up): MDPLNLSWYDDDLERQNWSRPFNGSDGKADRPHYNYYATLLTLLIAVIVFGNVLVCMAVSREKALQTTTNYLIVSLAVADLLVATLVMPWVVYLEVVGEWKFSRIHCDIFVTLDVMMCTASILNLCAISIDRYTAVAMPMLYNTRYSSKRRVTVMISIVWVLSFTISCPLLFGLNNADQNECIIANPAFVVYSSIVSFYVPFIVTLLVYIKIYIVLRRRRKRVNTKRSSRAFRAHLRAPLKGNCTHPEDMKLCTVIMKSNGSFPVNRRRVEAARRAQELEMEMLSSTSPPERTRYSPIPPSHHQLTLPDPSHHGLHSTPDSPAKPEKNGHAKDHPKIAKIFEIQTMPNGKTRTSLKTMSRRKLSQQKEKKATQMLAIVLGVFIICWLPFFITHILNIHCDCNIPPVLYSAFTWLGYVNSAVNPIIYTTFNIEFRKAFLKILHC
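PathHunter D2 cells, attached overnight at 37 deg C, received compound in DMSO plus dopamine at EC20 (50 nM final) for 90 min at 37 deg C. Beta-arrestin recruitment was read as luminescence after 1 h with detection reagent at ambient temperature.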
CtBP-E1A inh = blocks the CtBP interaction with E1A. activity change, % (test concentration not listed). 0.49% of 340,000 active. AlphaScreen GST-E1A/His-CtBP binding, 1536-well; hits give low values; control for the full effect not named in the record. AID 651724; in the data active means activity change below about -65%; inconclusive means about -30% to -65%; inactive means above about -30%; further: on the % scale 0 is the no-effect control and ±100 the full control effect; compound concentration not given in the record
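Homogeneous bead-based format: GST-tagged E1A captured on glutathione donor beads, His-tagged CtBP on nickel acceptor beads; compounds precede bead addition by 2 h at 37 °C.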
PINK1 modulator = changes PINK1 expression. PINK1 immunofluorescence, high-content cytometry, 24 h. 0.2% of 410,000 active. Potency, µM (series often up to 76.6 µM), for inactives: at the top dose activation (PINK1 increase), hits mostly activators; active = well fitted activation curve with a large enough effect; inconclusive = small, poorly fitted or top-dose-only effect; inactive = flat fitted curve, though single readings scatter; cell line not stated here;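 further: potency means the concentration at half of the fitted maximal effect; % of control where 0% means no effect; nearly all actives have a fitted effect of over 65% in size; a mitochondrial uncoupler was the plate control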
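Measures PINK1 amount and localization on or inside mitochondria by immunofluorescence. Stable cells get compounds at 5 concentrations for 24 hours before fixation and staining; CCCP controls included.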
Six1-Eya2 blk = Six1/Eya2 interaction inhibition. Q15475+O00167. AlphaScreen GST-Six1/His-Eya2 binding, biochemical; hits give low values; control for the full effect not named in the record. activity change, % (concentration not given with the values). 0.56% of 360,000 active. AID 651725; in the data active = activity change below about -65%; inconclusive = about -30% to -65%; inactive = above about -30%; further: on the % scale 0 is the no-effect control and ±100 the full control effect
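GST-Six1 + His-Eya2 (5X stock: 250/500 nM); Tris pH 8.0, 300 mM NaCl, 0.05% BSA, 0.02% Tween 20; GSH donor/Ni acceptor beads; 1 h 37 °C dark; AlphaScreen readout.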
TRPML1 ag = activates the human TRPML1 channel; Q9GZU1; TRPML1-expressing cells, Ca2+ dye fluorescence, FDSS; host cell line not named in the record; reference of the full effect not given here; activation, % (concentration not given with the values); 0.12% of 410,000 active; in the data active = activation above about 50%; inconclusive = about 30% to 50%; inactive = below about 30%; further: 0% is about no effect; the text of the record puts the active cut at 80%
Target sequence (Q9GZU1 whole entry, looked up): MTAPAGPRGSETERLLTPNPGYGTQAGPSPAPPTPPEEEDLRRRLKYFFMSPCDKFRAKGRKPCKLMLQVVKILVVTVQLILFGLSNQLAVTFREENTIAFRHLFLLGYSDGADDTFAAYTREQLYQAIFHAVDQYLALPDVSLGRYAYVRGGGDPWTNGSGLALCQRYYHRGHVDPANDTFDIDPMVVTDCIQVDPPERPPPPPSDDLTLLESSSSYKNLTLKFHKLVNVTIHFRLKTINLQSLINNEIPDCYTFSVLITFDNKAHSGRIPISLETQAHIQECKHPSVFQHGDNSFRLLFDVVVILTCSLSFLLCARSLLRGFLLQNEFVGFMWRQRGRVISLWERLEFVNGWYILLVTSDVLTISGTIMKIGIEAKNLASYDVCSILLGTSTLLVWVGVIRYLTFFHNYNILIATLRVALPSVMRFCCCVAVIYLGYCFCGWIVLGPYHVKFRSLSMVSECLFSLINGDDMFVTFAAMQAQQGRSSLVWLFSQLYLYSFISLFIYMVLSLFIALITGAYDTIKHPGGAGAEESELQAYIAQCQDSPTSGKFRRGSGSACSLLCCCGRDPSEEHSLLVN
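Cells: TRPML1-DL, 1X Tet inducer, ~16 h at 37 degrees C/5% CO2. Dye: ABD Ca8 no-wash + quencher, 45-90 min RT. Read: 10 s baseline, compound add, 110 s agonist phase; 54-4 EC80 (4uM final), 110 s antagonist phase.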
D2 agonist = agonists of human D2 dopamine receptor (beta-arrestin). 0.084% of 360,000 active. activation, % (test concentration not listed). DiscoveRx PathHunter D2 beta-arrestin, luminescence, 90 min; 100% = 57 uM dopamine signal; in the data active = activation above about 40%; inconclusive = about 15% to 40%; inactive = below about 15%; further: compound concentration not given in the record; the text of the record calls up to 30% inactive
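DiscoveRx PathHunter D2 beta-arrestin cells (2,100/well) attached overnight, then compound-stimulated 90 min at 37 C in HBSS/10 mM HEPES/0.1% Tween-20 buffer; beta-galactosidase complementation read by luminescence after 1 h at ambient temperature. Dopamine 57 uM final (EC100) as control.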
* hit, by the source's call; ? = inconclusive; . = not tested or not shown; [ ] = remark or other dose.

mol | TRPML1 ag | CtBP-E1A inh | PINK1 modulator | D2 PAM | D2 agonist | Six1-Eya2 blk
Cc1cccc(CNC(=O)Nc2nnc([C@@H]3C[C@H](O)[C@@H](CO)O3)s2)c1 | -0.8 | 4 | 0.8% | 0 | -0.1 | 0
Fc1ccc(CSc2nnc(-c3cccnc3)n2Cc2ccco2)cc1 | -0.3 | -16 | 1.1% | -2 | -2.5 | -17
CN(C)C(CNC(=O)CCc1nc2cc(Cl)ccc2n(Cc2ccccc2)c1=O)c1ccccc1 (configuration not stated) | 0.1 | -2 | -1.4% | -28 | -8.3 | -13
COc1ccccc1Cn1c(=S)[nH]c2cc(C(=O)NCCN(C)C)ccc2c1=O | 0.5 | -17 | 3.9% | -7 | -3.7 | -4
COc1ccc(C2C(C(C)=O)=C(O)C(=O)N2c2nc3ccccc3s2)cc1OC (configuration not stated) | 0.4 | -3 | 1.7% | -6 | -7.2 | 17
O=[N+]([O-])c1cccnc1N1CCOCC1 | 0.7 | 4 | 4.9%[38.3 µM] | 3 | 0.7 | -1
Oc1ccc(Br)cc1CNc1nccs1 | . | . | 1.1% | 15 | -3.8 | 5
O=C(c1cc2ccccc2oc1=O)N1CCN(c2ccc(N3CCOCC3)nn2)CC1 | -0.8 | 3 | 2.9% | -5 | 0.7 | 4
C=CCC(O)(CCN1CCCCC1)c1ccccc1 (configuration not stated) | 0.2 | -6 | 2.8% | -5 | -1.7 | 7
Cc1ccc(C)c(OCc2cc(C(=O)N3CCN(C(=O)c4ccco4)CC3)no2)c1 | 1.4 | 5 | 1.5% | 1 | 7.3 | -11
CCOc1ccc(-n2c(=O)[nH]cc(C(=O)N3CCCc4ccccc43)c2=O)cc1 | -0.3 | -2 | -0.6% | -11 | -2.9 | -1
CN(C)CCC(C(=O)c1ccccc1)c1ccncc1 (configuration not stated) | 0.5 | -2 | 0.5% | -6 | -1.0 | -5
Cc1nn(CC(=O)c2ccc(Cl)cc2Cl)c(C)[n+]1N | 0.1 | 0 | 0.5% | 4 | -2.4 | 1
CC1CCC2C(=O)N(c3ccc(C(=O)NCc4ccccc4)cc3)C(=O)C2C1 (configuration not stated) | 0.3 | -5 | 3.8% | 5 | -1.1 | 3
CCC(=O)Nc1ccccc1C(=O)N1CCCC1 | -0.1 | -3 | -1.5% | -14 | -2.1 | -9
CC[C@H](C)[C@H]1CNC(=S)N1CC1CCN(CC)CC1 | . | 5 | 0.2% | . | -0.5 | 0
CC1CCc2c(nc3ncnn3c2NCCc2ccccc2F)C1 (configuration not stated) | 3.3 | -2 | -0.3% | -3 | 3.8 | -12
CN1CCc2c(sc(/N=C/c3c[nH]c4ccccc34)c2C(N)=O)C1 | 3.6 | -23 | 0.3% | -17 | -3.9 | -21
Cc1ccc(CNC(=O)c2cc(=O)c3ccccc3o2)cc1 | 0.1 | -8 | -0.7% | -7 | -4.2 | -4
COc1ccc(OC)c(C(=O)c2ccc(C(=O)N3CCN(Cc4csc(C)n4)CC3)cc2)c1 | 1.2 | 2 | -0.5% | 3 | -4.0 | 3
O=C(Nc1nnc(-c2ccc(Cl)cc2)o1)c1cccc(N2C(=O)CCC2=O)c1 | -0.6 | ? | -1.3% | -7 | 1.3 | -26
O=C(OCC(=O)N1CCOCC1)c1ccc2ccccc2c1 | 0.1 | . | -0.6% | -2 | -4.1 | -1
CCCCNC(=O)c1oc2ccc(S(=O)(=O)N3CCCC3)cc2c1C | 0.0 | 8 | -0.7% | -6 | 0.1 | 3
CCCCn1c(NCc2cccs2)nc2ccccc21 | 0.4 | 1 | -0.5% | -7 | -1.4 | -5
COc1ccc(C(=O)NCCNc2nc3cc(C)c(C)cc3cc2C)cc1 | 0.7 | 0 | 7.1% | -8 | -4.9 | 2
CC1CCN(S(=O)(=O)c2cccc(-c3csc(-c4cccnc4)n3)c2)CC1 | 0.3 | -15 | 10% | -19 | -2.6 | -20
COC(=O)c1[nH]nc2c1C(=O)N(Cc1ccccc1)C2=O | -0.5 | 5 | 4.0% | -4 | -2.8 | -4
O=C(NCCCCCCCCCNC(=O)C(F)(F)F)C(F)(F)F | 0.9 | -17 | ? | -7 | -0.6 | 9
Cc1ccccc1Cn1c(C)c(C(=O)NCCC#N)sc1=O | -0.6 | 2 | 1.6% | -2 | -1.7 | -5
C=CCc1cccc(Cl)c1OCCCNC1CCCC1 | -0.7 | . | 5.9% | -63 | 1.0 | 9
COC(=O)c1ccc(CSc2nnc(Nc3cccc(OC)c3)s2)o1 | -0.3 | -19 | 1.1% | -23 | -2.9 | -27
Cc1cccc(C)c1NC(=O)c1csc([C@H]2C[C@H](O)[C@@H](CO)O2)n1 | -0.3 | 4 | 0.4% | -4 | -3.8 | 6
Cc1c(Nc2nc3ccccc3nc2NS(=O)(=O)c2ccccc2)c(=O)n(-c2ccccc2)n1C | 0.3 | -6 | 0.8%[38.3 µM] | -2 | -1.4 | -2
Cc1cc(C)c(C)c(S(=O)(=O)N2CCC(C(=O)Nc3ccncc3)CC2)c1C | 1.0 | 3 | -1.8% | 11 | -6.0 | 5
CC(C)CCN1CCN=C1Nc1ccccc1 | 0.6 | 6 | 0.1% | -12 | -1.6 | 0
CN(C)S(=O)(=O)N1CCCC(C(=O)c2ccc(C(F)(F)F)cc2)C1 (configuration not stated) | -0.9 | -8 | -0.3% | 3 | -5.0 | -11
Cc1ccc(OCC(=O)NNC(=O)C2CSC3(C)CCC(=O)N23)cc1 (configuration not stated) | 0.2 | 2 | 0.7% | -8 | 0.1 | 11
CCCCCCCCCCCCCC(=O)NO | 1.4 | 1 | 0.3% | -7 | 8.0 | 10
COc1ccc(NC(=O)CSc2nc3ccccc3c(=O)n2CCC(=O)N2CCCCC2)cc1 | 2.4 | -10 | 0.8% | -10 | -2.0 | 0
O=C(CNS(=O)(=O)c1ccc(F)c(Cl)c1)N1CCCCCC1 | -0.3 | 6 | 0.6% | 2 | -5.4 | 2

Quoted at random: three compounds from above.
mol | TRPML1 ag | CtBP-E1A inh | PINK1 modulator | D2 PAM | D2 agonist | Six1-Eya2 blk
O=C(CNS(=O)(=O)c1ccc(F)c(Cl)c1)N1CCCCCC1 | -0.3 | 6 | 0.6% | 2 | -5.4 | 2
CN(C)S(=O)(=O)N1CCCC(C(=O)c2ccc(C(F)(F)F)cc2)C1 (configuration not stated) | -0.9 | -8 | -0.3% | 3 | -5.0 | -11
Cc1c(Nc2nc3ccccc3nc2NS(=O)(=O)c2ccccc2)c(=O)n(-c2ccccc2)n1C | 0.3 | -6 | 0.8%[38.3 µM] | -2 | -1.4 | -2

The list continues.
mol | TRPML1 ag | CtBP-E1A inh | PINK1 modulator | D2 PAM | D2 agonist | Six1-Eya2 blk
CC(=O)Oc1ccc(-c2csc(Nc3ccccn3)n2)cc1 | 0.8 | -12 | -1.0% | -13 | 3.6 | -4
Cc1ccc(CCNC(=O)Cn2ccc3cc(S(=O)(=O)N4CCCC4)ccc32)cc1 | -0.3 | 2 | 0.5% | -8 | 2.3 | 0
O=C(NCCc1ccccc1)c1cnc2n(c1=O)CCS2 | -0.1 | -1 | 4.0% | -6 | -6.0 | -1
Cc1cc(-c2ccccc2)nc2cc(C(N)=O)nn12 | -0.4 | ? | -0.8% | -7 | -5.9 | -2
N#CCOC(=O)[C@H](Cc1c[nH]c2ccccc12)NS(=O)(=O)c1ccc(Cl)cc1 | 0.9 | . | 0.6% | 1 | -0.8 | -4
CCOC(=O)c1ccc(S(=O)(=O)NCC(c2ccc(N(C)C)cc2)c2c[nH]c3ccccc23)cc1 (configuration not stated) | -0.1 | 2 | 1.0% | -5 | -4.5 | ?
O=C(NCCCN1CCCC1=O)c1ccc(S(=O)(=O)Nc2ccccc2)cc1 | 0.3 | -6 | -1.3% | 20 | 2.8 | 2
O=C(COC(=O)C1(c2ccccc2F)CCCC1)N1CCc2ccccc21 | 4.2 | -10 | 15% | 0 | -0.8 | 2
O=C(NCCCN1CCCC1=O)c1ccc2c(=O)n(-c3ccccc3F)c(=S)[nH]c2c1 | -0.3 | 2 | -0.8% | -8 | -5.9 | 0
Cc1c(NC(=O)c2ccccc2NS(=O)(=O)c2ccc(Br)cc2)c(=O)n(-c2ccccc2)n1C | -0.4 | -11 | -3.3% | 2 | 0.0 | -1
O=C(c1ccc(S(=O)(=O)N2CCOCC2)cc1)N(c1ccc(F)cc1)C1C=CS(=O)(=O)C1 (configuration not stated) | 0.4 | 18 | -1.9%[38.3 µM] | 6 | -2.0 | 1
COc1ccc(Cn2c(-c3ccc(Cl)cc3)c[n+]3ccccc23)cc1 | -0.7 | 4 | 16% | -10 | 0.1 | 2
CCOc1ccc(/C(O)=C2/C(=O)C(=O)N(CCCn3ccnc3)C2c2cccs2)cc1Cl (configuration not stated) | -0.2 | -1 | . | 0 | 1.3 | 6
O=C(c1cc2c(=O)n3ccccc3nc2s1)N1CCOCC1 | -0.1 | -23 | 1.7% | 4 | -1.6 | 2
COc1ccc(C(=O)N2CCOC2CNC(=O)C(=O)NCCc2ccccc2OC)cc1 (configuration not stated) | -0.3 | -2 | 6.0% | 5 | -3.2 | -11
O=C(Nc1cc(C(F)(F)F)ccc1N1CCOCC1)c1cccs1 | -1.1 | -1 | 0.9% | -22 | -1.7 | -2
CCCN1Cc2cccc(C(=O)Nc3ccc(OC)c(OC)c3)c2C1=O | -0.3 | 5 | 0.5% | 0 | -1.9 | 10
CCOCCCn1c(=O)c2ccccc2n2c(=S)[nH]nc12 | -0.7 | . | 0.8% | -10 | 14 | -2
CCOCCCNC(=O)C1CCC(CNS(=O)(=O)c2cccc3nsnc23)CC1 (configuration not stated) | -0.4 | -2 | ? | -7 | -3.1 | -2
Cn1ccnc1SC(=O)N1c2ccccc2Sc2ccccc21 | 0.7 | 11 | . | 25 | 2.9 | 10
COc1ccc(/C=C/C(=O)c2ccc[nH]2)c(OC)c1OC | -0.5 | 0 | -1.8% | 3 | -1.5 | 4
Cc1cc(NC(=O)CSc2nnc(Nc3ccccc3F)s2)no1 | 0.4 | . | 7.7% | -9 | 2.9 | ?
COc1ccc(CSc2nc3nc(C)cc(C)n3n2)cc1F | 0.1 | . | -0.3% | -12 | -3.1 | -1
Cc1ccc(C(=O)NCC(=O)NCC(c2ccco2)N2CCCCC2)cc1C (configuration not stated) | 0.0 | -1 | 0.9% | -29 | 2.1 | 4
COc1ccc2c(c1)[nH]c1c(=O)n(Cc3ccccn3)cnc12 | -0.6 | -2 | 9.5% | 4 | -0.3 | -1
COc1ccc(/C=C(/C#N)C(=O)Nc2cc(C)ccc2C)cc1C(=O)O | 3.0 | -2 | 2.2% | -16 | -5.5 | -7
Cc1ccc2nc(C)cc(C(=O)OCC(=O)Nc3c(C)n(C)n(-c4ccccc4)c3=O)c2c1 | -0.6 | 0 | 1.2% | -1 | -4.0 | -3
CCOC(=O)c1nc(Nc2ccc(N3CCOCC3)cc2)c2ccccc2n1 | -1.6 | -2 | 4.1% | -4 | 4.0 | -18
CCc1cccc(N(CC(=O)NC2CCCCC2)C(=O)c2csnn2)c1 | -0.4 | -2 | -1.3% | -11 | -6.1 | -1

Hits appear at their usual frequency. Share with any hit: about 1.3%.
